Hsc70 ATP site = Hsc70 inhibitors, probe displacement, primary screen, biochemical, fluorescence polarization (AID 568). Hsc70 fluorescence polarization, probe displacement; higher % means a stronger effect; strong numbers were not always called active. one-dose displacement, % at 20 µM; IC50 in µM for titrated hits. 83,000 tested, under 10 active;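 active means displacement above 50% without optical interference and an IC50 on retest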;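 further: ATPase domain with a fluorescein-tagged ATP probe; 0% = vehicle and 100% = excess ADP; read after one hour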
MT1-MMP promoter = inhibitors of MT1-MMP promoter transcription, cell-based, luciferase reporter, luminescence (AID 618); MT1-MMP promoter luciferase reporter cells, luminescence; calls from a first round at 10 µM; hits with a dose series show EC50 in µM; hit rate 0.62% among 87,000;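 active means over half of the reporter light lost at 10 µM or EC50 under 50 µM; inactive means the rest and hits that failed the dose series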;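 further: actives suppress MT1-MMP promoter-driven transcription so potencies describe inhibitors; HT1080 fibrosarcoma cells; overnight exposure; toxic or luciferase-blocking compounds were not removed from the actives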
WNV NS2B-NS3 inh = blocks West Nile virus NS2B-NS3 protease activity | z-score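 (tested at a level between 10 and 100 µM)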 | hit rate 0.18% among 65,000 | WNV NS2B-NS3 protease, fluorogenic substrate Ex360/Em465; stronger effect = lower value | AID 577;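 active means z-score at -3 or under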;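 further: score is relative to mean and spread of the compound wells of a plate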
Target sequence (P06935 1371-1501 limits assumed): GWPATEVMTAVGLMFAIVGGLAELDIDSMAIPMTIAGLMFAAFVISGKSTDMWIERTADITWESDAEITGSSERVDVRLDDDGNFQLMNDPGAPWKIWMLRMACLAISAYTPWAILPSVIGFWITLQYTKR
Target sequence (P06935 1502-1679 limits assumed): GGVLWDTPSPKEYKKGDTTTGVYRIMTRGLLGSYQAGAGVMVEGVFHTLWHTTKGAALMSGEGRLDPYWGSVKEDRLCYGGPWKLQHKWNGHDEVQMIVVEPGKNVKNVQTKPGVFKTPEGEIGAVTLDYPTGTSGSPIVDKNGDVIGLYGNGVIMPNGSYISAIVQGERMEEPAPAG
* hit, by the source's call; i = inactive; . = no result given.

SMILES	Hsc70 ATP site	MT1-MMP promoter	WNV NS2B-NS3 inh
O=C(CCCn1c(=O)c2sccc2n(CC(=O)NCc2ccco2)c1=O)NCc1ccco1	-6.1%	i	-0.2
N#Cc1cc2c(nc1SCc1nc3ccccc3[nH]1)CCC2	7.9%	i	-0.28
CC(=O)Nc1ccc2nc(-c3ccccn3)[nH]c2c1	-3.2%	i	-1.3
O=c1cc(CN2CCC3(CC2)OCCO3)c2c(ccc3ccccc32)o1	-6.3%	i	0.35
N#CC1=C(N)Oc2cc(N)ccc2C1C1CC=CCC1 (stereo unspecified)	1.2%	i	-0.26
COc1ccc(C2C3=C(Nc4ncnn42)c2ccccc2CC3)cc1OC (stereo unspecified)	3.4%	i	-1.1
O=C(CN1CCc2ccccc2C1)c1cccs1	0.8%	i	0.14
Cc1ccc(C(=O)C2=C(O)C(=O)N(CCN3CCOCC3)C2c2ccccn2)o1 (stereo unspecified)	0.2%	i	-0.49
CCc1cc2c(=O)c(-c3nc4ccccc4n3C)coc2c(CN2CCOCC2)c1O	-1.3%	i	-0.17
CSc1nsc(SCc2ccc(F)cc2)n1	3.9%	i	1.2
O=C(N/N=C/C=C/c1ccccc1)C1CC1c1ccccc1 (stereo unspecified)	-1.2%	i	.
CC1CN(S(=O)(=O)c2ccc(C(=O)Nc3nnc(-c4ccc5c(c4)CCCC5)o3)cc2)CC(C)O1 (stereo unspecified)	0.7%	i	2.2
Cc1cc(O)c(C(C)C)cc1NC1=NS(=O)(=O)c2ccccc21	6.2%	i	1.1
O=C(c1ccc(=O)oc1)N1CCOCC1	-9.9%	i	-0.9
CCNC(=O)CCC(=O)Nc1cc(Cl)ccc1C	2.2%	i	2.1
O=C1COc2ccc(OCc3ccc(F)cc3)cc21	-15%	i	0.31
Cn1c(=O)c2c(nc(SCCN3CCOCC3)n2Cc2ccccc2)n(C)c1=O	0.9%	i	-0.26
CC(C)(CNC(=O)c1cccs1)CNC(=O)c1cccs1	1.4%	i	2
CC(C)C(=O)N(Cc1cc2ccccc2[nH]c1=O)C(C)C	0.3%	i	1.1
CC12COC3(C(=O)Nc4cccnc4)CC1CCC32C (stereo unspecified)	-1.3%	i	-0.57
O=C(COc1cccc2cccnc12)N/N=C1\SCC(=O)N1Cc1ccco1	1.3%	i	.
COc1ccccc1-c1nc(C#N)c(N2CCc3ccccc3C2)o1	5.1%	i	-1
O=C(NC1CC2CCCC(C1)N2C1CC1)NC12CC3CC(CC(C3)C1)C2 (stereo unspecified)	9.3%	i	-0.64
CC(=O)Nc1ccc(S(=O)(=O)NCC2CCC(C(=O)NC3CCCCCC3)CC2)cc1 (stereo unspecified)	0.5%	i	.
CCOC(=O)COn1c2c(c3c4no[n+]([O-])c4ccc31)CCCC2	-3.6%	i	-0.21
Cc1cc(C)c2c(n1)nn1c(C3CC3)cc(C(F)(F)F)nc21	-13%	i	-0.46
COc1ccc(N2C(=O)CCC(C(=O)N3CCOCC3)C2c2ccc(F)cc2)cc1 (stereo unspecified)	-3.7%	i	-0.02
O=S1(=O)C=C(Sc2nc3cc(Cl)ccc3o2)c2ccccc21	-17%	i	-0.51
Fc1ccc2nc3[nH]c4ccccc4c3nc2c1	8.7%	i	-1
O=C(CN(CCc1ccccc1)C(=O)CNS(=O)(=O)c1ccc(F)cc1)NCC1CCCO1 (stereo unspecified)	4.9%	i	-0.14
CNC(=O)c1sccc1-n1cccc1	-3.2%	i	.
COc1cccc(-c2nn(C)c3sc(C(=O)NCc4ccc5c(c4)OCO5)cc23)c1	3.2%	i	-0.52
Cn1c(SCC(=O)NC2CCCCC2)nnc1-c1cc2cc(Cl)ccc2o1	0.8%	i	-0.1
Cc1ccc(C(=O)NCCNC(=O)CN2CCOCC2)cc1	-1.8%	i	0.76
O=C(NCc1cccc(Cl)c1)c1ccco1	-2.1%	i	0.52
CN(CCCNC(=O)c1ccc(/C=N/O)nc1)CCCN(C)Cc1ccccc1	3.6%	i	.
CC(C)COC(=O)C(N)C(C(=O)OCC(C)C)c1ccccc1 (stereo unspecified)	-1.2%	i	-0.49
Cc1ccc(S(=O)(=O)c2nc(S(C)(=O)=O)sc2NCC2CCCO2)cc1 (stereo unspecified)	-1.0%	i	-1.7
Cc1cc(NC(=O)CN2C(=O)C3CC=CCC3C2=O)no1 (stereo unspecified)	2.2%	i	-0.25
COc1ccc(/C(C)=N/NC(=O)c2ccc(CSc3cccc4cccnc34)cc2)cc1OC	-3.2%	i	.
C=CCNc1nc(C2(C)CC3(CC(C)(C)OC3=O)C(=O)O2)cs1 (stereo unspecified)	3.8%	i	-0.09
CCOC(=O)C1CCN(CCC(=O)Nc2cccc(Cl)c2)CC1	1.5%	i	1.3
O=C(NCCCN1CCOCC1)c1ccc(Br)s1	1.7%	i	-0.23
Cc1nn(Cc2ccc(F)cc2)c(C)c1NC(=O)c1nn(C)cc1Cl	-3.5%	i	.
CCOC(=O)Cc1csc(NC(=O)CSc2ncnc3c2cnn3-c2ccccc2Cl)n1	2.0%	i	-1.1
COC(=O)CN1C(=O)C(O)(CC(=O)c2ccccc2)c2ccccc21 (stereo unspecified)	-8.2%	i	-1.3
Nc1ccc(OCc2ccccc2)cc1	3.8%	i	0.27
CCOC(=O)c1c(C)[nH]c(C(=O)COC(=O)CCC(=O)c2ccc3c(c2)OCCO3)c1C	-1.1%	i	-0.26
CCN(CC)CCOc1c(Br)ccc2c1sc1nc3n(c(=O)c12)CCC3	-0.7%	i	0.3
CC(=O)OC1c2ccccc2C(=O)N1c1ccccc1C (stereo unspecified)	5.4%	i	-0.32
Cc1nc2ccc(S(=O)(=O)N(C)CC(=O)NCc3ccc4c(c3)OCO4)cc2s1	-3.6%	i	0.91
CCCCn1c(-c2ccccc2)nnc1-c1ccccc1	-4.2%	i	0.2
C/C(N)=C(/C#N)C(=O)COC(=O)CCC1CCCC1	-2.3%	i	.
CCCCC(=O)Nc1ccc(C(=O)NCC(=O)OC)cc1	-4.7%	i	0.0094
CC(=O)Nc1ccc(NC(=O)CN(c2ccccc2Cl)S(C)(=O)=O)cc1	1.8%	i	-0.71
COc1ccc2nc(NC(=S)N(C)C)sc2c1	1.2%	i	.
Cc1cc(S(=O)(=O)N2CCC(NC(=O)C34CC5CC(CC(C5)C3)C4)CC2)ccc1-n1cnnn1	-1.5%	i	-0.97
N#CC1=C(N)C(C#N)(C#N)[C@H](c2c(F)cccc2F)[C@H]2CC3(CC=C12)OCCO3	4.7%	i	-0.67
CC1=C(C(=O)OCC2CCCO2)C(c2ccc(O)cc2)NC(=O)N1 (stereo unspecified)	-2.3%	i	-1.4
CC1=C(C(=O)Nc2cccnc2)C(c2ccc(C(C)C)cc2)n2ncnc2N1 (stereo unspecified)	1.6%	i	0.08

Next part:
SMILES	Hsc70 ATP site	MT1-MMP promoter	WNV NS2B-NS3 inh
C=CCOC(=O)C1=C(C)Nc2ncnn2C1c1cc(Br)ccc1F (stereo unspecified)	2.9%	i	-0.55
Cc1nc(N2CCN(c3ccccc3)CC2)nc2c1C(=O)CC(C)C2 (stereo unspecified)	-2.4%	i	0.05
Cc1sc(NC(=O)CSC2=NCCS2)nc1-c1ccccc1	4.2%	i	.
COC(=O)c1c(NC(=O)Cc2cccs2)sc(C)c1C	3.0%	i	-0.25
CCOC(=O)CN1C(=O)COc2ccc(C(C)(C)C)cc21	0.5%	i	1.2
COc1ccc(CC(=O)Nc2nc3ccc(F)cc3s2)cc1S(=O)(=O)N1CCOCC1	1.1%	i	.
CSc1nc(O)c(Cc2ccccc2)c(=O)[nH]1	-3.6%	i	-0.64
CC1CCc2c(sc3ncnc(NCCN4CCOCC4)c23)C1 (stereo unspecified)	7.8%	i	0.04
CCN(CC)c1nc2n(c(=S)n1)CCS2	-11%	i	0.62
COc1ccc(-c2csc3ncnc(NCCN4CCOCC4)c23)cc1	1.5%	i	-0.11
O=C(NC1CCCCC1)N1CCN(c2ccccc2)CC1	0.8%	i	.
COc1ccc(C(=O)N2CCCC2)cc1S(=O)(=O)N1CCC(C)CC1	-1.1%	i	1
Cc1oc(CC(C)C)cc1C(=O)Nc1ccc(C(=O)O)cc1	-1.7%	i	-0.36
CC(C)Cn1c(N2CCN(C(=O)c3cccs3)CC2)nc2ccccc21	-6.6%	i	-1.1
COC(=O)Cn1cc(C(=O)c2ccco2)c2ccccc21	2.0%	i	-0.55
CCn1c(SCc2ccc(C#N)cc2)nnc1-c1ccc(S(=O)(=O)N2CCCCC2)cc1	-0.1%	i	-0.42
CCNC(=O)C1CN(S(=O)(=O)c2ccccc2)CCN1S(=O)(=O)c1ccccc1 (stereo unspecified)	6.7%	i	-0.55
CSc1nc2sc3c(c2c(=O)n1C)CCCC3	5.8%	i	-0.4
O=C(Nc1ccc(Cl)cc1F)c1ccc(COc2c(F)c(F)c(F)c(F)c2F)o1	0.6%	i	0.42
O=C(COc1ccccc1Cl)N1CCN(c2ncccn2)CC1	6.6%	i	0.31
CC(=O)c1c(C)nc(C)nc1NC(=O)Cc1ccccc1	-2.5%	i	-1.3
O=C1c2oc3ccc(Cl)cc3c(=O)c2C(c2ccccn2)N1CCCN1CCOCC1 (stereo unspecified)	-6.0%	i	1.1
Cc1ccc(S(=O)(=O)Nc2ccc(S(=O)(=O)Nc3ncccn3)cc2)cc1	4.1%	i	0.88
C/C=C(\C)c1nnc(NC(=O)c2ccco2)s1	-1.3%	i	0.06
Cc1nc(NC2=NCN(Cc3ccccc3)CN2)nc2ccccc12	-0.1%	i	-0.21
CC1CCCCN1C(=O)c1ccccc1NC(=O)c1ccco1 (stereo unspecified)	-0.8%	i	-0.93
CCOc1ccc(NC(=O)c2oc3ccccc3c2NC(=O)C(C)C)cc1	6.3%	i	1
COc1cc(CCC(=O)N2CCN(S(=O)(=O)c3ccc(C)c(C)c3)CC2)cc(OC)c1OC	-6.3%	i	1.1
Cc1ccc(C(=O)Nc2nc3ccc(S(C)(=O)=O)cc3s2)s1	-4.5%	i	0.69
CCN1CCN(C(=O)c2cc3c(s2)-c2ccccc2S(=O)(=O)C3)CC1	5.4%	i	-0.74
Cc1nn(C(=O)CCCC(=O)n2nc(C)c(Cl)c2C)c(C)c1Cl	4.1%	i	-1.5
Cc1csc(SCCn2c(Br)nc3c2c(=O)[nH]c(=O)n3C)n1	2.9%	i	-0.36
CCN1C(=S)SC(=O)C1=C1C=C(C)OC(C)=C1	29%	i	0.0081
COCCOC(=O)c1c(C)oc2ccc(OC(=O)c3c(OC)cccc3OC)cc12	-3.3%	i	-0.68
CC(=O)OC1CCC(OC(C)=O)c2c1n([O-])c(C)c(C)[n+]2=O (stereo unspecified)	-5.3%	i	1.4
O=C(Nc1ccccc1)c1ccc2c(c1)OCCO2	2.6%	i	.
O=C1NC2C(NC(=O)N2C2CCCCC2)N1C1CCCCC1 (stereo unspecified)	7.2%	i	-0.47
COC(=O)C1=C(C)NC2=C(C(=O)CC(c3cccs3)C2)C1c1ccsc1 (stereo unspecified)	2.3%	i	-0.25
CCOc1ccc(OCC)c(NS(=O)(=O)c2ccc3c(c2)CCN3C(=O)C2CCC2)c1	-3.3%	i	.
CC(C)CCNc1nc2c(c(=O)n(Cc3cccc(F)c3)c(=O)n2C)n1C	-1.0%	i	-1.1
CCOc1ccc(C2=Nn3c(nnc3-c3ccccc3)SC2)cc1Cl	7.8%	i	1.9
CC(C)(C)n1nnnc1C(c1cccc(C#N)c1)N1CCN2CCCC2C1 (stereo unspecified)	1.2%	i	-0.88
CC1C(=O)CC(c2ccccc2)NC1c1ccccc1 (stereo unspecified)	0.6%	i	.
CCCc1[nH]nc2c1C1(CCOC1C)C(C#N)=C(N)O2 (stereo unspecified)	-0.3%	i	0.16
Brc1ccc(C2Nc3cccc4cccc(c34)N2)o1	-3.9%	i	2.3
COc1ccc(CNC(=O)CCS(=O)(=O)c2cccc3nonc23)cc1	-12%	i	0.17
Cn1c(SCC(=O)Nc2ccccc2-c2ccccc2)nnc1-c1ccco1	-4.2%	i	1.9

The list is partial, so the mix of outcomes need not match the whole.
